HSD17B inh: inhibitors of human HSD17B10 dehydrogenase; Q99714; recombinant HSD17B10, NADH fluorescence kinetic; many of its hits are not listed in these tables; Potency, µM (doses to about 57.1 µM), inactives show at the top dose activity change, negative = inhibition, usual class: inhibitors; 7.6% of 75,000 active; active = well fitted inhibition curve with a large enough effect; inconclusive = small, poorly fitted or top-dose-only effect; inactive = no such curve, though single readings can be large or run the other way;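 note: the protocol describes HADH2 (HSD17B10) and not the HSD17B4 of the title; nearly all actives have a fitted effect of over 70% in size; most hits overshoot -100% by far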
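Activity followed as NADH fluorescence increase (ex 360, em 450 nm) every 30 seconds for 4 min, using final 90 uM beta-hydroxybutyryl CoA and 1 mM NAD+. Recombinant His-tagged enzyme, 20 nM, pH 9.0 Tris buffer, 15 min compound preincubation.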
* = called active by the depositor; ? = inconclusive; & = joins results of further samples; [ ] = dose if it differs, or a comment. % is set by controls: 0 for no effect and ±100 for the full control effect; potency is the fitted concentration of half-maximal effect. Not all compounds are listed; rates above refer to the full screens.

Compound | HSD17B inh
COc1ccccc1N(CC(O)CN(c1ccccc1)S(C)(=O)=O)S(=O)(=O)c1ccccc1 (stereo not drawn) | -7%
CC(=O)C(C)Oc1ccc2c3c(c(=O)oc2c1)CCCC3 (stereo not drawn) | 25µM*
CCCSc1nnc(-c2ccccc2NC(=O)CC)c(=O)[nH]1 | 2%
O=C(CCS(=O)(=O)c1cccs1)N1CCCC1 | 3%
CCN(CC)C(=O)Cc1cc(C(=O)O)c2ccccc2n1 | -4%
CN(C)C(=O)N1CCC(C(=O)NCC2CCCO2)CC1 (stereo not drawn) | -6%
CCCN1C(=O)c2ccccc2NC1c1ccc(OC)cc1OC (stereo not drawn) | 25µM*
COc1ccc(C(=O)N2CCC3(CC2)CCN(c2ccccc2)CC3)cc1 | -5%
CCOC(=O)c1cc(CNC(=O)c2c(C)oc3c2CCCC3)c(C)o1 | -2%
c1ccc(Cc2nnc3sc(-c4ccncc4)nn23)cc1 | 6%
CCN1C(=O)c2cccc3c(N)ccc1c23 | 1%
O=C(CN1CCN(Cc2ccccc2F)C1=O)NCc1cccnc1 | 7%
CCOC(=O)CCc1c(C)nc2cc(-c3ccc(F)cc3)[nH]n2c1=O | 10µM*
O=C1CCCN1CCCNc1ncnc2c1[nH]c1ccc(Cl)cc12 | 32µM*
O=C(CSc1nc2ccccc2c(=O)n1C1CC1)NCc1ccccc1 | -4%
O=C(Oc1ccc2c(c1)OCO2)c1cccs1 | 3%
CO/N=C(\C(=O)N[C@@H]1C(=O)N2C(C(=O)O)=C(COC(C)=O)CS[C@@H]12)c1csc(N)n1 | -14%[25.6 µM]
O=C1C2C3C=CC(C3)C2C(=O)N1CNc1ccc(O)cc1 (stereo not drawn) | -16%
c1ccc(-n2cnc3cc(NCc4ccccn4)ccc32)cc1 | -18%
Cn1c(CCN2CCCCC2)nc2cc(NS(=O)(=O)c3ccc(Cl)cc3)ccc21 | -6%
COc1ccc(-c2nnc(SCC(=O)N3CCCCC3)o2)cc1OC | 1%
Cc1ccccc1NC(=O)C1CCCN(S(=O)(=O)c2c(C)noc2C)C1 (stereo not drawn) | 15%
COC(=O)CSc1nnc(CNS(=O)(=O)c2ccc(C)cc2)n1C | 13%
Cc1nnc(SCc2nc3ccccc3s2)n1-c1ccccc1 | -2%
COc1ccc(-c2cn3cccnc3n2)cc1NC(=O)c1ccc(Br)o1 | 25µM*
CC1=NC(C(F)(F)F)(C(F)(F)F)C2=C(CC(C)(C)CC2=O)N1Cc1ccco1 | -6%
O=S(=O)(c1ccc(OCC(O)CNCc2ccco2)c(Cl)c1)N1CCOCC1 (stereo not drawn) | -1%
COC(=O)N1[C@H](Cc2ccccc2)C=C[C@]1(C)C(=O)O | 0%
CC(C)(C)NS(=O)(=O)c1ccc(OCC(=O)Nc2ccc3c(c2)OCCO3)cc1 | 6%
CN(C)S(=O)(=O)c1cccc2nsnc12 | -3%
CC1CCCC(C)N1CC(O)COc1ccc(Cl)cc1 (stereo not drawn) | 10%
CC(C)C(=O)Nc1ccc2c(c1)C(=O)N(CCC(=O)O)C2=O | 32µM*
Cn1c(Cn2c(=O)sc3ccccc32)nnc1SCC(=O)N1CCCC1 | 8%
CCOC(=O)C1CCN(C(=O)c2ccco2)CC1 | 3%
Cc1ccc2c(c1)NCC(C(=O)NCc1ccccc1)O2 (stereo not drawn) | 1%
COc1cc(Cl)c(S(=O)(=O)N2CCOCC2)cc1Cl | 0%
O=C(CSc1ncc(-c2ccccc2)n1CC1CCCO1)N1CCCCC1 (stereo not drawn) | 4%
O=S(=O)(/C=C/c1ccccc1)Nc1ccc(N2CCOCC2)cc1 | 0%
COc1ccccc1-c1nc(-c2ccccn2)no1 | ?
CC1CN(c2nn3c(=O)c4ccccc4nc3c3ccccc23)CC(C)O1 (stereo not drawn) | -66%
N#Cc1c2n(cnc1=O)CCCCC2 | 5%
COc1ccc(C2=Nn3c(nnc3-c3ccc(OC)cc3)SC2)cc1 | -5%
CC1=N[C@@](C)(COC(=O)[C@]2(C)N[C@](C)(CO)CO2)COC1=O | 9%[11.4 µM]
COc1ccc(N(CC(=O)Nc2cc(C)ccc2C)S(=O)(=O)c2c(C)nn(C)c2C)cc1 | 0%
O=C(c1cccc(F)c1)N1CCC2(CC1)CCN(c1cccc(-c3ccccc3)c1)CC2 | -5%
Cc1ccc(OC(=O)CCC(=O)N2CCc3ccccc32)cc1 | -5%
O=S(=O)(c1ccccc1)N1CCSC1c1ccco1 (stereo not drawn) | -8%
Cc1c(N(C)C(=O)c2ccco2)c(=O)n(-c2ccccc2)n1C | 8%
O=C(CN1C(=O)C2C3C=CC(C3)C2C1=O)N1CC=C(c2ccccc2)CC1 (stereo not drawn) | 6%
C=CCNC(=O)c1scc2c1CCCC2 | -3%

Three of the compounds above, field by field:
COC(=O)CSc1nnc(CNS(=O)(=O)c2ccc(C)cc2)n1C
  HSD17B inh: 13%
CCN1C(=O)c2cccc3c(N)ccc1c23
  HSD17B inh: 1%
O=C(CCS(=O)(=O)c1cccs1)N1CCCC1
  HSD17B inh: 3%

Further entries follow:
Compound | HSD17B inh
N=c1cc(C2(O)CCCCC2)n2c(nc3ccccc32)s1 | -3%
O=C(Nc1cccc(Cl)c1)N1CCN(C/C=C/c2ccccc2)CC1 | -4%
Cc1ccccc1NC(=O)NCc1ccco1 | 0%
COc1ccc2nc(COC(=O)c3ccco3)c(C(C)=O)[n+]([O-])c2c1 | 6%
Nc1nc(CN2CCc3ccccc3C2)nc(Nc2ccccc2)n1 | -4%
CCOC(=O)c1sc(/N=C/Nc2nc(C)c(C(=O)OCC)s2)nc1C | 11%
Cc1nnc(SCC(=O)N2CCc3ccccc32)s1 | 6%
CC(C)(C)C(=O)CSc1nc2ncc(Br)cc2[nH]1 | 3%
COc1ccccc1CNc1nc2nc(C)c(Cl)c(=O)n2[nH]1 | 6%
COc1ccccc1N1CCN(S(=O)(=O)CC23CCC(CC2=O)C3(C)C)CC1 (stereo not drawn) | 6%
Cn1cnnc1SCC(=O)OCN1C(=O)c2ccccc2C1=O | -1%
O=C(CSC1=NC(=O)C(Cc2ccccc2)C(=O)N1)Nc1ncccn1 (stereo not drawn) | 9%
Cc1n[nH]c(C)c1Cc1ccc(C(=O)O)cc1 | 10%
Cc1nc2cnc(Nc3ccccc3)nc2n(C[C@H]2CCCO2)c1=O | -1%
COc1ccc(C)cc1-n1nnnc1SCc1cn2ccsc2n1 | 15%
N#CC(C(=O)NC1CCCCC1)c1nc2ccccc2nc1N1CCN(c2ccc(F)cc2)CC1 (stereo not drawn) | 1%
CCOC(=O)C1=C(c2ccccc2)N2CCS(=O)(=O)N=C2S1 | 10%
CCc1ccccc1NC(=O)COC(=O)C1CC(=O)N(c2ccc(F)cc2)C1 (stereo not drawn) | 12%
COCCNC(=O)COc1ccccc1Cl | 13%
COc1ccc(-c2ccc(CCC(=O)O)n2C(C)C)cc1 | 32µM*
CCOC(=O)c1[nH]c2ccc(F)cc2c1NC(=O)CN1CCc2cc(OC)c(OC)cc2C1 | ?
Cc1cc(C)c(NC(=O)CS(=O)CC(=O)N2CCN(c3ccccc3)CC2)c(C)c1 (stereo not drawn) | 1%
CCN(CC)CCn1c(-c2ccccc2)nc2c(N3CCOCC3)nc(C)nc21 | ?
COC(=O)c1ccc(CSc2ccccc2C)o1 | -19%
Cc1ncoc1C(=O)Nc1cccc(Cl)c1 | -7%
O=C(Nc1ccccn1)c1c(O)c2cccc3c2n(c1=O)CCC3 | 17%
O=C(O)C1CCNCC1 | 2%&3%
O=C(CN1CCN(c2ccccc2)CC1)Nc1ccccc1C(F)(F)F | -4%
Cc1cc(C)nc(N(C#N)CN2C(=O)c3ccccc3S2(=O)=O)n1 | -2%
O=C(Cn1nc(Cc2cccnc2)c2ccccc2c1=O)NCc1ccc2c(c1)OCO2 | -3%
COc1ccc(C2(CNC(C)=O)CCCC2)cc1OC | 4%
COc1ccc(O)c(C(=O)c2cc(C#N)c(=O)n(CCN3CCOCC3)c2)c1 | 11%
CC1(C)CC(=O)C=C(Nc2ccc(Br)cn2)C1 | -7%
Cc1cc(N2CCOCC2)n2nc(-c3cccc(F)c3)cc2n1 | ?
COc1ccc(-c2nc(N3CCOCC3)nc3nn4c(C)c(CCC(=O)O)c(C)nc4c23)cc1 | 3.2µM*
O=C(CCC1COc2ccccc2O1)Nc1ncccc1O (stereo not drawn) | -11%
CCC(C)COC(=O)c1ccc(C(=O)O)cc1 (stereo not drawn) | 3%
CC(C)(C)c1ccc(OCCN2CCCC2)cc1 | 12%
CC1=C(C(=O)Nc2cccnc2)C(c2cccnc2)n2nc(-c3cccs3)nc2N1 (stereo not drawn) | 8%
Cc1ccc(C2CC(c3ccccc3C)n3nc(N)nc3N2)cc1 (stereo not drawn) | 8%
Oc1c(C(c2cccs2)N2CCN(c3ccccc3)CC2)sc2ncnn12 (stereo not drawn) | 5%
COc1ccc2c(c1)c(=O)c(Br)c(C)n2Cc1ccccc1 | -7%
CN(C)CCCNc1oc(-c2cccc(Cl)c2)nc1C#N | 32µM*
CCCN(CCC)CCCNC(=O)c1cc2cc3ccc(OC)cc3nc2o1 | 25µM*
CCCS(=O)(=O)N1CCC(C(=O)NCCN(CC)c2ccccc2)CC1 | -1%
COc1ccc(C(=O)Nc2cccnc2)cc1S(=O)(=O)N1CCOCC1 | 4%
COC(=O)C1=C(C)NC(=O)CC1c1cc2c(cc1Br)OCO2 (stereo not drawn) | 2%
COC(=O)N1CC=CC1(C)C(=O)O (stereo not drawn) | -2%
CS(=O)(=O)N(CC(=O)O)c1ccc2c(c1)OCO2 | 2%
c1ccc2[nH]c(NCCN3CCOCC3)nc2c1 | 4%

Other structures
Compound | HSD17B inh
Cn1c(=O)c(-c2ccc(Cl)cc2)nc2cnc(Nc3ccccc3)nc21 | 2%
Cc1ccccc1Oc1ccc(Oc2ccccc2C)nn1 | 23%
COC(=O)c1[nH]c2c(c1C)C(=O)CCC2 | 2%
CC(CCc1ccccc1)NC(=O)C1CCN(S(=O)(=O)c2cnc[nH]2)CC1 (stereo not drawn) | 6%
O=C1O[C@@H]([C@H](O)[C@H](O)[C@H](O)CO)[C@@H](O)[C@@H]1O | 3%[11.4 µM]
COc1cccc(C(=O)Nc2ccc3nc(N4CCN(c5ncccn5)CC4)cc(C)c3c2)c1OC | 7.9µM*
COC(=O)Cc1csc(N)n1 | 5%
CCCCCCCCCCCCCCCCCCc1ccc(C(=O)/C=C\C(=O)O)cc1 | -15%
Cc1noc(NS(=O)(=O)c2ccc(N3Cc4ccccc4C3=O)cc2)c1C | 4%
O=C1c2oc3ccc(F)cc3c(=O)c2C(c2cccc(O)c2)N1CCCN1CCOCC1 (stereo not drawn) | 10%
Cc1ccc(C)c(-n2c(CNC(=O)c3ccco3)nnc2SCC(=O)Nc2nccs2)c1 | -1%
COc1cccc(OCCOc2c(OC)cccc2OC)c1 | -2%
O=C(NCC1(N2CCOCC2)CCCCC1)c1ccc(Cl)c(S(=O)(=O)NCc2ccco2)c1 | 1%
c1cncc(-c2nc(-c3ccc4c(c3)OCO4)cs2)c1 | -19%
O=C(c1cc(-c2ccccc2)on1)N1CCN(Cc2ccc3c(c2)OCO3)CC1 | ?
Nc1nc(CN2CCN(c3cccc(Cl)c3)CC2)nc(N2CCCc3ccccc32)n1 | -26%
Cc1ccc2c(CSc3nncs3)cc(=O)oc2c1 | 13µM*
COC(=O)C1C(=O)C=C(N2CCOCC2)CC1(C)C (stereo not drawn) | -4%
CCOc1ccc(CCNC(=O)Cn2c(-c3nonc3N)nc3ccccc32)cc1OCC | 9%
O=C(c1ccc(C(=O)N2CCCc3ccccc32)nc1)N1CCCc2ccccc21 | 19%
O=C(Cn1cnc2c(cnn2-c2ccccc2)c1=O)c1ccc(Cl)cc1 | 9%
CC(=O)c1cccc(S(=O)(=O)N2CCN(c3nc4cc(C)cc(C)c4cc3C#N)CC2)c1 | 16µM*
CCCc1noc2c1C(c1ccoc1)C(C#N)=C(N)N2 (stereo not drawn) | ?
O=C(NC(O)C(=O)c1cccs1)c1cccnc1 (stereo not drawn) | 3%
COc1ccc(C(CC(=O)Nc2nccs2)n2cccc2)cc1 (stereo not drawn) | -14%

Reprinted from the part before: 3 entries, then new ones.
Compound | HSD17B inh
CCCc1noc2c1C(c1ccoc1)C(C#N)=C(N)N2 (stereo not drawn) | ?
O=C(NC(O)C(=O)c1cccs1)c1cccnc1 (stereo not drawn) | 3%
COc1ccc(C(CC(=O)Nc2nccs2)n2cccc2)cc1 (stereo not drawn) | -14%
Cc1cc(NC(=O)CSc2nc(C(C)C)nc3sc(C)c(C)c23)no1 | 4%
Cc1nc(NCC2CCCO2)c2nnn(Cc3ccccc3Cl)c2n1 (stereo not drawn) | 6%
COc1ccc2c(c1)CCc1c(C(=O)N3CCCc4ccccc43)noc1-2 | -16%
COc1ccc(OC)c(-n2cnnn2)c1 | 2%
COc1cccc(-c2nnc(SCC(=O)Nc3ccc4c(c3)OCCO4)n2Cc2ccco2)c1 | -6%
Cn1c(=O)c2c(nc(Br)n2CC(=O)C23CC4CC(CC(C4)C2)C3)n(C)c1=O | 6%
Cc1ccc(S(=O)(=O)C2(C(=O)Nc3cccnc3)CC2)cc1 | -4%
